Compound activity from PubChem BioAssay.
YB-1 expr inh: inhibitors of YB-1 gene expression, primary screen, cell-based, fluorescence. delta delta Cp (YB-1 minus CDIP) (no concentration beside the values). U2OS, qRT-PCR YB-1 vs CDIP delta delta Cp, 16 h; hits give high values; zero = DMSO, each unit about twofold. hit rate 0.37% among 30,000;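 active = delta delta Cp rounded down to an integer at or above 3, about 3 SD of DMSO wells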;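 also: higher means less YB-1 transcript or more CDIP transcript relative to DMSO; stock transfer was 100 nL into about 100 µL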
Hedgehog inh: Hedgehog pathway signaling inhibitors, primary screen, luminescence, Shh-LIGHT2 cells, Gli-luciferase; Shh-LIGHT2 Gli-luciferase reporter, 30 h; inhibition, % (test concentration not listed); hit rate 2.1% among 22,000; AID 2313, 2010;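 active = replicate mean of 65% or more; inconclusive = mean lower but half the replicates past it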;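 also: pathway switched on by Shh-conditioned medium diluted 1 in 25 in low serum; 100 nL library stock added to about 40 µL; 0% = median of neutral wells and 100% = positive control level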
PD-1 reversal: activators reversing PD-1 mediated T-cell inhibition, primary screen, luminescence, primary human CD4 T cells, PD-L1 beads; 29,000 tested, under 10 active; CellTiter-Glo 96 h; activation, % (test concentration not listed);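 active = replicate mean of 50% or more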;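 also: 0% = median vehicle wells and 100% = positive control; 100 nL library stock added to about 50 µL; numbers are from one replicate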
MITF inh: inhibitors of MITF, primary screen, MITF inhibitor project, cell-based, luminescence; TRPM1 promoter luciferase, 24 h; AID 2240, 2010; hit rate 0.28% among 37,000; inhibition, % (test concentration not listed);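 active = most replicates at 85% or more, or half of them and the mean; inconclusive = half reach 85% but not the mean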;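 also: human melanocyte line stably carrying TRPM1 promoter luciferase reporter; 0% = vehicle wells and 100% = a positive control; the first replicate is given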
* = called active by the depositor; ? = inconclusive; / = no result given. These rows are one share of the data; rates above refer to the full screens.

SMILES	YB-1 expr inh	Hedgehog inh	PD-1 reversal	MITF inh
C[C@@H]1CN([C@H](C)CO)C(=O)Cc2cc(NS(=O)(=O)c3ccc(F)cc3)ccc2O[C@H]1CN(C)Cc1ccc(C(=O)Nc2ccccc2N)cc1	-0.46	/	-2.6	-14
C[C@H]1CN([C@@H](C)CO)C(=O)c2cc(NC(=O)Cc3cn(C)c4ccccc34)ccc2O[C@@H]1CN(C)Cc1ccc(C(=O)O)cc1	-0.0047	-16	0.3	20
Cc1ccc(S(=O)(=O)N(C)C[C@@H]2Oc3ccc(NC(=O)Cn4cnnn4)cc3C(=O)N([C@H](C)CO)C[C@@H]2C)cc1	-0.58	/	-2.2	-4
C[C@@H]1CN([C@H](C)CO)C(=O)c2cc(NS(=O)(=O)c3ccc(F)cc3)ccc2O[C@@H]1CN(C)Cc1ccc(C(=O)Nc2ccccc2N)cc1	-0.37	/	-0.7	16
COc1ccc(C)cc1N(CC(=O)O)S(=O)(=O)c1ccc(C)cc1	/	/	1.1	-20
COc1ccc(S(=O)(=O)N(C)C[C@H]2Oc3ccc(NC(=O)Cc4cn(C)c5ccccc45)cc3C(=O)N([C@H](C)CO)C[C@@H]2C)cc1	-0.076	19	-1.3	23
C[C@@H]1CN([C@@H](C)CO)C(=O)c2cccc(NC(=O)c3cnccn3)c2O[C@H]1CN(C)C(=O)NC1CCCCC1	-0.12	-2	/	-1
C[C@@H]1CN([C@@H](C)CO)C(=O)c2cccc(NC(=O)Nc3ccc(C(F)(F)F)cc3)c2O[C@@H]1CN(C)S(=O)(=O)c1cccs1	-0.15	23	-1.3	8
Cc1c(C2CCN(CCc3ccccc3)CC2)noc1-c1ccc(Cl)cc1	-0.2	77*	/	-1
C[C@H](CO)N1C[C@H](C)[C@@H](CN(C)Cc2ccc3c(c2)OCO3)Oc2c(NC(=O)Nc3ccc4c(c3)OCO4)cccc2C1=O	0.062	-50	-3.6	-35
COc1ccc(NC(=O)N(C)C[C@@H]2Oc3ccc(NS(=O)(=O)c4cn(C)cn4)cc3C(=O)N([C@H](C)CO)C[C@@H]2C)cc1	0.16	/	1.4	-7
CNC[C@H]1Oc2ccc(NS(=O)(=O)c3ccc(Cl)cc3)cc2C(=O)N([C@H](C)CO)C[C@H]1C	0.61	/	1.4	-12
C[C@@H]1CN([C@H](C)CO)C(=O)c2cccc(NC(=O)Nc3ccc4c(c3)OCO4)c2O[C@H]1CN(C)C	-0.43	11	-0.7	-11
C[C@H]1CN([C@@H](C)CO)C(=O)c2cccc(NC(=O)Nc3cccc4ccccc34)c2O[C@@H]1CN(C)S(=O)(=O)c1cn(C)cn1	0.23	19	1.0	-2
C[C@@H]1CN([C@H](C)CO)C(=O)c2cccc(N(C)C)c2O[C@H]1CN(C)S(=O)(=O)c1cccs1	0.0072	-16	/	11
CC[C@H](CO)Nc1nc(NCc2ccccc2)c2ncn(C(C)C)c2n1	-0.16	52	3.7	42
Cc1nn(C)c(C)c1NC(=O)CSc1nnc(C)n1-c1ccccc1	/	/	1.7	-3
COc1ccc(C)cc1S(=O)(=O)N1CCC(C(=O)Nc2cc(Cl)ccc2Cl)CC1	/	/	-2.7	18
C[C@@H]1CN([C@H](C)CO)C(=O)Cc2cc(NC(=O)c3ccncc3)ccc2O[C@@H]1CN(C)C(=O)Nc1ccc(C(F)(F)F)cc1	0.015	-41	/	-1
C[C@H]1CN([C@@H](C)CO)C(=O)c2cccc(NS(=O)(=O)c3ccc(Cl)cc3)c2O[C@@H]1CN(C)Cc1ccc(Cl)c(Cl)c1	-0.31	-23	-1.0	-2
CCOC(=O)c1c(C(C)(C)C)oc2ccc(OCC(=O)OC)cc12	-0.37	-25	1.2	-17
C[C@H]1CN([C@@H](C)CO)C(=O)Cc2cc(NC(=O)Nc3ccccc3)ccc2O[C@@H]1CN(C)C(=O)NC1CCCCC1	-0.11	3	-0.7	-3
C[C@@H]1CN([C@@H](C)CO)C(=O)c2cc(NC(=O)C3CCCCC3)ccc2O[C@@H]1CN(C)C(=O)Nc1ccccc1	-0.15	3	-1.3	-11
Nc1nnc(SCC(=O)N2CCc3ccccc32)n1-c1ccccc1	/	/	1.7	28
C[C@@H]1CN([C@H](C)CO)C(=O)c2cccc(NC(=O)Nc3ccc4c(c3)OCO4)c2O[C@H]1CN(C)S(=O)(=O)c1ccccc1	-0.26	?	-1.8	0
C[C@H](CO)N1C[C@H](C)[C@H](CN(C)C(=O)Nc2ccc(F)cc2)Oc2c(NS(=O)(=O)c3cn(C)cn3)cccc2C1=O	0.15	-74	1.8	11
COc1ccc(NC(=O)N(C)C[C@H]2Oc3ccc(NC(=O)c4ccncc4)cc3C(=O)N([C@H](C)CO)C[C@H]2C)cc1	-0.11	0	-0.2	-3
CC(=O)Nc1ccc(OCC(O)Cn2nc(C)c(C(C)=O)c2C)cc1 (stereo not given)	/	/	0.9	-50
CNC[C@H]1Oc2ccc(NC(=O)CCN3CCOCC3)cc2CC(=O)N([C@H](C)CO)C[C@H]1C	0.00047	17	1.6	-10
COc1cccc(-n2nnnc2SCC(=O)Nc2c(C)cc(C)cc2C)c1	/	/	0.5	-1
COc1ccc(S(=O)(=O)N(C)C[C@@H]2Oc3ccc(NC(=O)C4CCCCC4)cc3C(=O)N([C@@H](C)CO)C[C@@H]2C)cc1	-0.061	-16	-0.8	11
CNC[C@H]1Oc2c(NC(=O)NC(C)C)cccc2C(=O)N([C@H](C)CO)C[C@H]1C	0.43	-29	0.7	-4
C[C@H]1CN([C@@H](C)CO)C(=O)c2cccc(NC(=O)c3ccc(-c4nccs4)cc3)c2O[C@@H]1CN(C)S(=O)(=O)c1cn(C)cn1	-0.0057	2	0.3	-1
CC(C)NC(=O)N(C)C[C@@H]1OCCCC[C@@H](C)Oc2ccc(NC(=O)NC3CCCCC3)cc2C(=O)N([C@H](C)CO)C[C@@H]1C	0.068	-38	1.1	-8
C[C@H]1CN([C@@H](C)CO)C(=O)c2cc(NS(=O)(=O)c3ccc(Cl)cc3)ccc2O[C@@H]1CN(C)Cc1ccc(Oc2ccccc2)cc1	-0.29	/	-4.3	32
COc1ccc(C(=O)Nc2ccc(S(=O)(=O)Nc3nccnc3OC)cc2)cc1	-0.23	/	-0.2	-1
COc1ccc(CN(C)C[C@H]2Oc3ccc(NC(=O)CCC(F)(F)F)cc3C(=O)N([C@H](C)CO)C[C@@H]2C)cc1	-0.23	4	0.5	4
OCc1ccc(-c2nn(Cc3ccccc3)c3ccccc23)o1	-0.47	32	-36	-5
COc1ccc(-c2nnc(SCC(N)=O)n2-c2cccc(C(F)(F)F)c2)cc1OC	/	/	-0.3	-9
C[C@H](CO)N1C[C@H](C)[C@@H](CN(C)Cc2ccc(Cl)c(Cl)c2)Oc2c(cccc2N(C)C)C1=O	-0.29	-7	-1.3	-3
c1ccc(CSC23CC4CC(CC(C4)C2)C3)cc1	-0.69	/	-3.0	-2
Cc1cc(Br)c2c(c1)C(O)(CC(=O)c1ccco1)C(=O)N2C (stereo not given)	/	/	-5.1	4
C[C@@H]1CCCCO[C@@H](CN(C)Cc2ccc3c(c2)OCO3)[C@@H](C)CN([C@H](C)CO)C(=O)c2cc(NS(=O)(=O)c3ccc(F)cc3)ccc2O1	-0.067	61	-1.6	8
CC1(C)C(=O)C=C[C@@]2(C)C1C=C[C@]1(C)C2CC[C@@]2(C)[C@H](c3ccoc3)OC(=O)C3OC321 (stereo not given in full)	-0.44	-331	/	101*
Cc1cc2ccccc2n2c(SCC(=O)Nc3cccc(C(F)(F)F)c3)nnc12	/	/	2.7	-11
Cc1ccc(-c2nnn(CC(=O)Nc3ccc4c(c3)OCCO4)n2)cc1	/	/	1.0	-4
COc1cc(C)c(Cl)cc1S(=O)(=O)NCc1ccco1	/	/	-0.2	-34
CCn1c(NCc2cccc(OC)c2OC)nc2ccccc21	/	/	-2.1	-66
CNC[C@@H]1Oc2ccc(NC(=O)NC(C)C)cc2C(=O)N([C@@H](C)CO)C[C@@H]1C	-0.17	-5	0.5	-4
CC(C)NC(=O)N(C)C[C@@H]1Oc2c(NC(=O)c3ccncc3)cccc2C(=O)N([C@H](C)CO)C[C@@H]1C	-0.32	-51	1.5	-3
O=S(=O)(c1ccccc1)c1nc(-c2cccs2)oc1NCC1CCCO1 (stereo not given)	/	/	0.2	-9
C[C@@H]1CN([C@@H](C)CO)C(=O)c2cccc(NC(=O)C3CCCCC3)c2O[C@@H]1CN(C)CC1CCCCC1	-0.28	-2	/	-8
C[C@@H]1CN([C@H](C)CO)C(=O)c2cccc(NC(=O)Nc3ccc(F)cc3)c2O[C@@H]1CN(C)S(=O)(=O)c1ccc(F)cc1	-0.14	17	0.0	-4
CN(CC(=O)Nc1cccc2c1CCCC2)S(=O)(=O)c1ccc(Cl)cc1	/	/	0.9	6
COc1ccc(OC)c(C(=O)CSc2nnc(-c3ccco3)n2C)c1	/	/	1.4	-16
CCOC(=O)c1c(NC(=O)CSc2ncccn2)sc2c1CCCC2	/	/	-2.8	12
OC(c1nc2ccc(Cl)cc2[nH]1)C(O)c1nc2ccc(Cl)cc2[nH]1 (stereo not given)	-0.25	/	-0.9	-4
C[C@H]1CN([C@@H](C)CO)C(=O)c2cc(NC(=O)Nc3cccc4ccccc34)ccc2O[C@@H]1CN(C)CC1CCCCC1	0.21	-16	1.7	-4
Cc1noc(C)c1NC(=O)N(C)C[C@@H]1Oc2ccc(NC(=O)Nc3cccc4ccccc34)cc2C(=O)N([C@@H](C)CO)C[C@@H]1C	-0.16	-15	/	5
Cc1noc(C)c1S(=O)(=O)Nc1ccc2c(c1)C(=O)N([C@@H](C)CO)C[C@H](C)[C@H](CN(C)C)O2	0.49	3	1.6	7

By substructure: the compounds so far containing a thiophene ring, fused or not.
SMILES	YB-1 expr inh	Hedgehog inh	PD-1 reversal	MITF inh
C[C@@H]1CN([C@@H](C)CO)C(=O)c2cccc(NC(=O)Nc3ccc(C(F)(F)F)cc3)c2O[C@@H]1CN(C)S(=O)(=O)c1cccs1	-0.15	23	-1.3	8
C[C@@H]1CN([C@H](C)CO)C(=O)c2cccc(N(C)C)c2O[C@H]1CN(C)S(=O)(=O)c1cccs1	0.0072	-16	/	11
O=S(=O)(c1ccccc1)c1nc(-c2cccs2)oc1NCC1CCCO1 (stereo not given)	/	/	0.2	-9
CCOC(=O)c1c(NC(=O)CSc2ncccn2)sc2c1CCCC2	/	/	-2.8	12

The list continues.
SMILES	YB-1 expr inh	Hedgehog inh	PD-1 reversal	MITF inh
COc1ccc([N+](=O)[O-])cc1NC(=O)c1ccccc1N(C)S(=O)(=O)c1ccc(C)cc1	/	/	-0.9	-13
C[C@@H]1CCCCO[C@H](CN(C)CC2CCCCC2)[C@@H](C)CN([C@H](C)CO)C(=O)c2cc(NS(=O)(=O)c3ccc(Cl)cc3)ccc2O1	-0.1	-1	-6.3	13
CNC[C@H]1Oc2ccc(NC(=O)Nc3c(C)noc3C)cc2C(=O)N([C@@H](C)CO)C[C@@H]1C	-0.0028	/	0.9	-9
C[C@H]1CN([C@@H](C)CO)C(=O)c2cc(NC(=O)Cc3cn(C)c4ccccc34)ccc2O[C@@H]1CN(C)C(=O)Nc1cccc2ccccc12	-0.18	/	-0.7	13
Cc1ccc(S(=O)(=O)N(C)C[C@@H]2Oc3c(NC(=O)c4cc(C)nn4C)cccc3C(=O)N([C@@H](C)CO)C[C@@H]2C)cc1	0.022	-21	/	-12
COc1ccc(-c2cc(=O)[nH]c(SCc3nc4ccccc4c(=O)[nH]3)n2)cc1	/	/	3.5	27
C[C@@H]1CN([C@@H](C)CO)C(=O)Cc2cc(NC(=O)C3CCCCC3)ccc2O[C@@H]1CN(C)C(=O)Nc1ccc2c(c1)OCO2	0.22	-34	-0.5	-4
C[C@@H]1CN([C@@H](C)CO)C(=O)c2cc(NS(=O)(=O)c3ccccc3)ccc2O[C@H]1CN(C)CC1CCCCC1	0.35	/	1.9	11
CC(C)n1c2ccccc2c2nnc(SCC(=O)N3c4ccccc4Sc4ccccc43)nc21	/	/	1.2	15
CCn1c(SCC(=O)Nc2ccc(C)c(F)c2)nnc1-c1cccc(Cl)c1	/	/	1.7	5
Cc1noc(C)c1NC(=O)N(C)C[C@@H]1Oc2ccc(N(C)C)cc2C(=O)N([C@@H](C)CO)C[C@H]1C	0.43	-9	/	9
O=C(Nc1ccc(Cl)cn1)c1cccc(S(=O)(=O)N2CCCCCC2)c1	-0.55	-1	-1.6	22
C[C@H]1CN([C@@H](C)CO)C(=O)c2cc(N(C)C)ccc2O[C@H]1CN(C)Cc1ccc(Oc2ccccc2)cc1	0.13	25	2.3	0
Cc1cc2nc(SCc3ccccc3C#N)[nH]c2cc1C	/	/	0.4	-152

Some of these compounds in order of molar mass, smallest number first:
SMILES	YB-1 expr inh	Hedgehog inh	PD-1 reversal	MITF inh
CNC[C@H]1Oc2ccc(NC(=O)Nc3c(C)noc3C)cc2C(=O)N([C@@H](C)CO)C[C@@H]1C	-0.0028	/	0.9	-9
COc1ccc([N+](=O)[O-])cc1NC(=O)c1ccccc1N(C)S(=O)(=O)c1ccc(C)cc1	/	/	-0.9	-13
C[C@@H]1CCCCO[C@H](CN(C)CC2CCCCC2)[C@@H](C)CN([C@H](C)CO)C(=O)c2cc(NS(=O)(=O)c3ccc(Cl)cc3)ccc2O1	-0.1	-1	-6.3	13
